ALR H2O2 inh – inhibitors of human ALR sulfhydryl oxidase, primary screen, biochemical, H2O2 detection, HRP-luminol luminescence, single point; purified ALR, DTT oxidation; inhibition, % (test concentration not listed); hit rate 3.8% among 290,000; AID 485317, 2010;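 active = mean and each replicate at 75% or more; inconclusive = only one of the two met; inactive = neither met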;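 also: stock transfer was 7.5 nL into about 7.5 µL; 0% = neutral wells and 100% = wells with inactivated enzyme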
Target sequence (P55789 whole entry, looked up): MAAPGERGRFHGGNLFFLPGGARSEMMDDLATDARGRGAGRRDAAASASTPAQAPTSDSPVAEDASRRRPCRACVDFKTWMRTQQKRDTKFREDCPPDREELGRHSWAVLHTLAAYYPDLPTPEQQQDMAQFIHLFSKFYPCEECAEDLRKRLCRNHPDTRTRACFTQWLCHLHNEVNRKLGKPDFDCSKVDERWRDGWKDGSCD
rRNA inh HTS – reduced GFP signal of wild-type E. coli, primary screen, bacterial rRNA inhibitor project, GFP/RFP fluorescence, OD600, single point | hit rate 1.6% among 350,000 | E. coli WT GFP vs humanized-ribosome RFP mutants, 24 h; hits give low values; DMSO median 0, no signal -100 | AID 720706, 2013 | GFP signal change (wild-type ribosome), % (no concentration beside the values);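 active = significant combined selectivity score with lowered wild-type GFP, culture density cut under 30%, mutant RFP and density less affected; inactive = any of these conditions unmet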; also: one replicate is shown; some compounds called inactive have numbers as strong as hits
Vif A3G – inhibitors of Vif binding to APOBEC3G peptide, primary screen, biochemical, TR-FRET, GST-Vif 1-94, biotin-A3G peptide, dose response retest (AID 1117319) | Virion infectivity factor (Human immunodeficiency virus type 1 group M subtype B (isolate … | TR-FRET GST-Vif / biotin-A3G peptide binding; higher % means a stronger effect; test concentration not given here; strong numbers were not always called active | one-dose inhibition, %; IC50 in µM for titrated hits | hit rate 0.57% among 260,000;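 active = above the screen mean plus three standard deviations and confirmed in dose response; inconclusive = results disagree or hit not tested in dose response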;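 also: Vif residues 1-94 fused to GST binding biotinylated APOBEC3G peptide 110-148; 0% = full assay without inhibitor and 100% = GST in place of GST-Vif; retest series ran down from 100 µM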
FGF22 binding – binders of human FGF22 protein, primary screen, FGF22 synaptogenesis inhibitor project, biophysical, thermal shift, single point | hit rate 1.5% among 340,000 | recombinant FGF22 thermal shift, SYPRO orange fluorescence; percent of sucrose octasulfate shift, DMSO zero | calls only at 9.99 µM | AID 651658, 2012;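 active = melting point raised past a set limit in the mean and every replicate; inconclusive = no clear call; three in four hits are not shown here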
Target sequence (Q9HCT0 whole entry, looked up): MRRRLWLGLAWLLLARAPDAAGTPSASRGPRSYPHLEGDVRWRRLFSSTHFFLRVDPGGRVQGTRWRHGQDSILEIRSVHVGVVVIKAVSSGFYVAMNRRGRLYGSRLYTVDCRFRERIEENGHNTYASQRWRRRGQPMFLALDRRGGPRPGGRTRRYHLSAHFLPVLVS
MLL AF4-AF9 inh – inhibitors of AF4 peptide binding to AF9, primary screen, biochemical, AlphaScreen, biotin-AF4 peptide, FLAG-AF9, single point. hit rate 0.47% among 350,000. inhibition, % at 10 µM. Protein AF-9 (Homo sapiens), P42568;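 active = every replicate reaching a set inhibition limit, whatever the replicate mean, cut at about 25% in these data; inconclusive = mean inhibition reaches that limit but some replicates miss it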;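 also: 0% = plate neutral control median and 100% = total signal loss; the record names both 10 and 1 µM as test concentration; the first replicate is given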
Target sequence (P42568 whole entry, looked up): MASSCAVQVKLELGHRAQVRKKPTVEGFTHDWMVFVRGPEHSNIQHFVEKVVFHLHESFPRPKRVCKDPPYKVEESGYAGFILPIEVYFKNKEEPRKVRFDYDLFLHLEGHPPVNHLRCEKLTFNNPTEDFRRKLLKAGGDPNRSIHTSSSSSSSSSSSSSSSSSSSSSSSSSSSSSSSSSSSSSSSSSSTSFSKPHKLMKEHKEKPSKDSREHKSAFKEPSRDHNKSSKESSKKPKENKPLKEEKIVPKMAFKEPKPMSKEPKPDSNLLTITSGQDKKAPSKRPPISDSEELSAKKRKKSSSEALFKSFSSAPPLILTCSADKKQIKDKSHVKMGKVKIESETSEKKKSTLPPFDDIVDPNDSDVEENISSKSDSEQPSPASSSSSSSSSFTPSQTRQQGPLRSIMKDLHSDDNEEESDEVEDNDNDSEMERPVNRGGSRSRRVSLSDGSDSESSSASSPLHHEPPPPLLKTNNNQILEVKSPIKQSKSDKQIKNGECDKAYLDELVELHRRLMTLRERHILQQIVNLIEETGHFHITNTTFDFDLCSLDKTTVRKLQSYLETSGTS
Ecoli growth – E. coli growth inhibition, primary screen, OD600. Escherichia coli growth, 23 h; hits give low values. OD600 absorbance (concentration not given with the values). hit rate 0.21% among 330,000. AID 1053175, 2014;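 active = OD600 absorbance below the run mean of sample wells minus 3.6 SD, in any replicate, cut at about 0.56 in these data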;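 also: stock transfer was 300 nL into about 60 µL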
HNF4A DNA FP – change in binding of human HNF4A to DNA, primary screen, biochemical, fluorescence polarization, FITC-DNA | Hepatocyte nuclear factor 4-alpha (Homo sapiens), P41235 | 1 h | activity change, % at 10 µM | hit rate 0.3% among 360,000 | AID 1224865, 2016; in the data active = activity change above about 30%, passing the limit was not always enough;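 also: controls were the assay level and a saturating level of protein; the project sought stronger binding though the title names inhibitors; some compounds called inactive have numbers as strong as hits; positive values seem to mean higher polarization but the record does not say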
rRNA inh HTS OD600 – recorded beside rRNA inh HTS, whose call it bears; OD600 change, %; measured here: OD600 growth;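 optical density of the mix in the first replicate; 0 = DMSO median and -100 = no signal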
rRNA inh HTS RFP – also measured in rRNA inh HTS; calls as there; RFP signal change, %; measured here: RFP humanized mutant strains;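 first replicate; 0 = DMSO median and -100 = no signal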
* hit, by the source's call; i = inactive; ? = inconclusive; . = no result given; & = joins results of further samples.

SMILES | ALR H2O2 inh | rRNA inh HTS | rRNA inh HTS OD600 | rRNA inh HTS RFP | Vif A3G | FGF22 binding | MLL AF4-AF9 inh | Ecoli growth | HNF4A DNA FP
C[C@@H]1CN([C@@H](C)CO)C(=O)Cc2cc(NC(=O)CCCN(C)C)ccc2O[C@H]1CN(C)S(C)(=O)=O | . | 4 | 2 | 0.4 | . | i | -1.6 | . | .
CN(c1ccccc1)S(=O)(=O)c1cccc(NC(=O)CSc2nnc(C3CC3)n2C)c1 | 19 | -9 | -3 | 0.1 | -12% | i | 4.5 | 0.66 | 0.3
O=C(CCc1ccccc1)N1CCN(c2ccccc2F)CC1 | 3 | 1 | -2 | -0.5 | 10% | i | -2.6 | 0.7 | 3.8
COc1ccc(C2C3=C(CCCC3=O)N(CC(=O)O)C3=C2C(=O)CCC3)cc1 | . | 17 | 18 | 0.9 | 6% | i | -0.7 | 0.69 | -5.4
CC(=O)Nc1ccc(S(=O)(=O)/N=C2/NC(=O)/C(=C\c3ccco3)S2)cc1 | 99* | 7 | -8 | 5.4 | ? | i | -3.3 | 0.65 | -17
C[C@H](CO)N1C[C@H](C)[C@@H](CN(C)Cc2ccccc2)Oc2ccc(NC(=O)Nc3ccc4c(c3)OCO4)cc2CC1=O | . | 6 | -27 | 15 | . | i | ? | . | .
CO[C@H]1CN(C)C(=O)c2cc(NC(=O)NC3CCCCC3)ccc2OC[C@H](C)NC[C@@H]1C | . | 2 | 6 | -0.6 | . | i | -0.1 | . | .
CC(OC(=O)c1ccc(Cl)nc1)C(=O)NC1CCCC1 (centres undefined) | -1 | 5 | 15 | -0.4 | 3% | i | -3.2 | 0.67 | 0.8
CCN(CC)CCCNC(=O)CCc1ccccc1 | -5 | . | . | . | 15% | . | . | 0.83 | -0.4
Cc1cc(C)c(C#N)c(N2CCN(CCOc3ccc(Cl)cc3)CC2)n1 | -3 | -11 | -5 | 1.7 | 3% | i | 4.5 | 0.68 | -6.1
O=C(CSc1cn(CC(=O)N2CCCCC2)c2ccccc12)NCC1CCCO1 (centres undefined) | 5 | 13 | 1 | 1.0 | -11% | i | -0.7 | 0.7 | -6.2
CO[C@H]1CC[C@@H]2CCN(C)C(=O)CCCN(C)C(=O)c3cccc(C#N)c3OC[C@@H]1O2 | . | 4 | 5 | -1.5 | . | i | 0.4 | . | .
O=C1CC(c2ccccc2)CC(O)=C1C=NCc1ccccc1 (centres undefined) | -3 | -1 | 0 | -0.9 | -8% | i | 5.7 | 0.68 | -0.5
Cc1cc(C)cc(CC2CC(=O)N(c3ccc(Cl)cn3)C2=O)c1 (centres undefined) | 1 | . | . | . | -3% | . | . | 0.73 | 1.1
O=C(c1cccnc1)N1C[C@@H]2[C@H](c3ccccc31)[C@H](CO)N2C(=O)C1CCCC1 | . | -2 | 8 | 2.2 | . | i | -5.0 | . | .
COc1ccccc1NC(=O)CN(c1ccc([N+](=O)[O-])cc1)S(=O)(=O)c1ccccc1 | 1 | 2 | 6 | -3.6 | 29% | i | 6.6 | 0.68 | -0.7
CO[C@H]1CN(C)C(=O)c2ccc(NC(=O)Nc3c(C)noc3C)cc2OC[C@@H](C)N(C)C[C@H]1C | . | 2 | 5 | -0.2 | . | i | -3.3 | . | .
COc1ccc2c3c([nH]c2c1)[C@H](CO)N(C(=O)c1ccccc1)CC31CCN(C(=O)CC2CC2)CC1 | . | 3 | -3 | 1.9 | . | i | -1.9 | . | .
Cc1ccc(NC(=S)NCc2ccccc2)cc1C | 9 | . | . | . | . | i | 2.2 | 0.69 | 2.3
C[C@H](NC(=O)[C@H]1N2C(=O)c3ccccc3C2SC1(C)C)C(=O)NCc1ccncc1 (some centres undefined) | -5 | -1 | 0 | -2.3 | 0% | i | -1.3 | 0.65 | -0.3
Cc1cc(C)n2nc(C(=O)OCC(=O)c3ccc(F)cc3)nc2n1 | 2 | 6 | 5 | 7.2 | -6% | i | -1.4 | 0.71 | 5.4
COc1ccc(-c2ccc3c(c2)c(Sc2ccccc2)c(-c2cc(OC)cc(OC)c2)n3C)cc1 | . | 25 | 25 | 1.0 | . | i | -2.2 | . | -2.5
CCn1nc(C(=O)OCc2c(C)noc2C)c2ccccc2c1=O | -20 | . | . | . | 11% | . | . | 0.69 | 1.3
COc1ccccc1-c1ccc(SCC(=O)NC2CCCCC2)nn1 | 6 | -3 | -7 | -0.8 | . | i | -1.8 | 0.66 | 2.3
CCN1C(=O)[C@H]2[C@@H](c3ccc(C)cc3)N3C(=O)N(c4ccc(C)cc4)C(=O)[C@@]3(Cc3ccc(Cl)cc3)[C@H]2C1=O | 13 | -28* | -20* | -6.5* | . | i | 2.4 | 0.81 | -0.4

The list goes on (3 carried over from the part before).
SMILES | ALR H2O2 inh | rRNA inh HTS | rRNA inh HTS OD600 | rRNA inh HTS RFP | Vif A3G | FGF22 binding | MLL AF4-AF9 inh | Ecoli growth | HNF4A DNA FP
CCn1nc(C(=O)OCc2c(C)noc2C)c2ccccc2c1=O | -20 | . | . | . | 11% | . | . | 0.69 | 1.3
COc1ccccc1-c1ccc(SCC(=O)NC2CCCCC2)nn1 | 6 | -3 | -7 | -0.8 | . | i | -1.8 | 0.66 | 2.3
CCN1C(=O)[C@H]2[C@@H](c3ccc(C)cc3)N3C(=O)N(c4ccc(C)cc4)C(=O)[C@@]3(Cc3ccc(Cl)cc3)[C@H]2C1=O | 13 | -28* | -20* | -6.5* | . | i | 2.4 | 0.81 | -0.4
COc1cc2c(cc1OC)C(c1c(Cl)cccc1Cl)=NCC2 | . | -6 | -1 | -7.2 | . | i | -4.8 | . | 4.3
CCCCNC(=O)N1CCOCCOCCN(C(=O)NCCCC)CCOCCOCC1 | -5 | . | . | . | 13%&1% | . | . | 0.69 | 0.3
O=C1NC(Cc2ccccc2)c2nc3ccc(Cl)cc3c(=O)n2-c2ccccc21 (centres undefined) | 8 | -1 | 1 | 2.5 | . | i | 4.0 | . | .
Cc1cccc(C)c1NC(=O)CN1CCN(CCCC(c2ccc(F)cc2)c2ccc(F)cc2)CC1 | . | . | . | . | . | i | 0.6 | 0.66 | 1.4
CCN(CC)S(=O)(=O)c1cc(NS(=O)(=O)c2cccs2)ccc1C | 1 | -18 | -28 | -1.0 | -3% | i | 3.4 | 0.63 | 0.4
COCCCNCC(=O)Nc1ccc(OC(F)(F)F)cc1 | 3 | . | . | . | 13% | . | . | 0.69 | 2.0
CN(Cc1cnn(C)c1)Cc1nc(C(c2ccccc2)c2ccccc2)no1 | -2 | -3 | -3 | 1.5 | -9% | . | 1.2 | 0.73 | 0.5
C/C(=N\OCC(=O)Nc1ccccc1C(C)(C)C)c1ccc2c(c1)OCCO2 | . | . | . | . | . | i | 4.2 | . | -0.1
CCCn1c(CCC(=O)O)nc2cc(S(=O)(=O)N(CC)CC)ccc21 | . | 6 | 9 | 0.0 | . | i | 5.6 | 0.67 | 6.0
OCC[C@H]1C[C@H](O)[C@@H](O)[C@@]2(Cc3ccccc3CCO2)O1 | -1 | 0 | 11 | 0.5 | . | i | -0.7 | . | -3.0
C=CCNc1cccc2c1S(=O)(=O)N[C@@H](CC(C)C)CO2 | . | -3 | -3 | 1.9 | . | i | -0.6 | . | .
COc1ccc(Cn2c(SCC#N)nc3ccc(N4CCOCC4)cc3c2=O)cc1 | -179 | -7 | 6 | 0.8 | . | i | -0.3 | 0.76 | -3.9
Cc1cc(C(=O)NCC(=O)O)c(C)o1 | -3 | 11 | 4 | -0.4 | 1% | i | -13 | 0.68 | -1.4
CC(=O)c1cc(C(C)=O)c(C)nc1C | -5 | 19 | 19 | 0.4 | 2% | . | 0.5 | 0.67 | -4.2
COC(=O)CSc1nc(-c2ccc(C)cc2)c2c(c1C#N)CCCC2 | -22 | . | . | . | ? | . | . | 0.73 | 3.4
NC(=O)c1ccc(NC(=O)CSc2cn(CC(=O)N3CCOCC3)c3ccccc23)cc1 | 99* | 2 | 7 | -2.7 | . | i | -13 | 0.71 | -0.2
CC1CN(c2ccc([N+](=O)[O-])cc2Cl)CCN1S(C)(=O)=O (centres undefined) | 19 | -4 | -12 | -5.2 | 2% | i | 7.4 | 0.69 | -0.5
COc1ccccc1NC(=S)N1CCN(Cc2ccccc2)CC1 | -18 | 7 | -1 | 2.9 | . | i | 8.4 | 0.72 | -0.6
CCCOc1ccccc1OCC(=O)N1CCN(S(=O)(=O)c2ccc(Cl)cc2)CC1 | -5 | -1 | -19 | 3.2 | . | i | 0.5 | 0.65 | 0.1
O=C(CSC1=NCCS1)NC1CCCCC1 | -2 | . | . | . | 17% | . | . | 0.76 | 0.0
COc1ccccc1NC(=O)CCCC(=O)OCC(=O)c1ccc(F)cc1 | -1 | -3 | -14 | -2.6 | 1% | i | -4.4 | 0.63 | 1.0
CC(=O)NC1C(Oc2cccc(C)c2)OC2COC(c3ccco3)OC2C1O (centres undefined) | 3 | 0 | -4 | 1.2 | . | i | -17 | 0.7 | -1.9
CCOC(=O)N1CCN(C(=S)NC(C)(C)C)CC1 | -29 | . | . | . | 1% | . | . | 0.66 | 1.8
Cc1cccn2c(=O)c3cc(C(=O)N4CC(C)CC(C)C4)sc3nc12 (centres undefined) | 2 | -3 | -5 | -0.2 | . | i | -0.2 | 0.68 | -2.6
CCOc1ncccc1C(=O)NCCc1ccc(OC)cc1 | 5 | -1 | 0 | 1.9 | . | i | -1.0 | 0.63 | 1.3

Next part:
SMILES | ALR H2O2 inh | rRNA inh HTS | rRNA inh HTS OD600 | rRNA inh HTS RFP | Vif A3G | FGF22 binding | MLL AF4-AF9 inh | Ecoli growth | HNF4A DNA FP
O=C(O)c1ccccc1C(=O)NC1CCN(c2nccc(C(F)(F)F)n2)CC1 | 21 | 0 | -8 | 2.7 | -6% | i | 0.8 | 0.7 | 0.9
CN(C)CC(=O)N[C@H]1CC[C@@H](CCNS(=O)(=O)c2ccccc2)O[C@@H]1CO | . | 2 | -1 | 0.2 | . | i | -1.1 | . | .
C[C@H](CO)N1C[C@H](C)[C@H](CN(C)C(=O)Nc2cccc(Cl)c2Cl)OCc2ccccc2-c2ccccc2C1=O | . | -1 | 0 | -1.1 | . | i | -0.7 | . | .
CN(C)C(=O)C1Cc2ccccc2CN1S(=O)(=O)c1ccc(F)cc1 (centres undefined) | -1 | 6 | 11 | 0.3 | . | i | -5.4 | 0.64 | 1.0
c1cc(CN2CCCCC2)cc(OCCCNc2nc3ccccc3s2)c1 | 2 | . | . | . | . | i | 7.2 | 0.69 | 0.2
CCc1cccc(NC(=O)C2CCCN(S(=O)(=O)c3cccnc3)C2)c1 (centres undefined) | 5 | 3 | -13 | 1.9 | . | i | -15 | 0.7 | -3.2
O=C(C[C@H]1C=C[C@@H](NC(=O)CN2CCOCC2)[C@@H](CO)O1)NC1CCCCC1 | . | 0 | -2 | 2.9 | . | i | -1.4 | . | .
C[C@@H]1CN([C@H](C)CO)C(=O)c2cccc(NS(=O)(=O)c3cccs3)c2O[C@@H]1CN(C)CC1CC1 | . | 5 | 5 | -4.2 | . | i | -0.8 | . | .

Look-ups from above.
rRNA inh HTS with C[C@H](CO)N1C[C@H](C)[C@H](CN(C)C(=O)Nc2cccc(Cl)c2Cl)OCc2ccccc2-c2ccccc2C1=O = -1
Ecoli growth with O=C(O)c1ccccc1C(=O)NC1CCN(c2nccc(C(F)(F)F)n2)CC1 = 0.7

High-throughput results (PubChem)

This is a subset; rates above refer to the full screens.
